Assay outcomes from PubChem.
StopGo RLuc – FMDV 2A StopGo reporter, Renilla signal; Potency, µM (doses to about 57.5 µM), without a hit: at the top dose signal change, negative = less light; actives 0.32% (n = 120,000); AID 1745857; HEK cells with a luciferase reporter of 2A StopGo recoding; active means well fitted falling curve with a large enough effect; inconclusive means small, poorly fitted or top-dose-only effect; inactive means no such curve, though single readings can be large or run the other way; further: nearly all actives have a fitted effect of over 55% in size; overnight with compound
StopGo FLuc – FMDV 2A StopGo reporter, firefly signal. HEK cells with a luciferase reporter of 2A StopGo recoding. Potency, µM (series often up to 57.5 µM), for inactives: at the top dose signal change, negative = less light. actives 0.23% (n = 120,000). AID 1745856; active = well fitted falling curve with a large enough effect; inconclusive = small, poorly fitted or top-dose-only effect; inactive = no such curve, though single readings can be large or run the other way; further: nearly all actives have a fitted effect of over 60% in size; overnight with compound
Numbers without * were called inactive; ? = inconclusive; & = joins results of further samples; [ ] = another dose, or the depositor's remark. On the % scale 0 is the no-effect control and ±100 the full control effect; potency means the concentration at half of the fitted maximal effect.

SMILES	StopGo RLuc	StopGo FLuc
O=C(Nc1ccc(Cl)cc1Cl)C1C2CC/C=C\CC/C=C/CCC21 (stereo not given)	2.2%	6.0%
O=C(CCC(=O)c1ccc(F)cc1)Nc1ccc(Cl)cc1	7.0%	0.8%
Cc1sc2c(c1C)c(=O)n(-c1ccc(Cl)cc1)c(=O)n2CC(=O)c1ccccc1	-1.8%	-9.6%
CN(Cc1ccccc1)c1oc(/C=C/c2ccccc2)nc1C#N	30.7%	102.4%[activator]
O=C1/C(=C/c2ccc(Cl)c(Cl)c2)Cc2ccccc21	8.5%	0.0%
COc1cc(C2C3=C(CCCC3=O)OC3=C2C(=O)CCC3)cc(Cl)c1OCC(=O)O	6.4%	-3.3%
COc1ccccc1C(=O)Nc1c(C)nc(Nc2ccccc2)nc1Nc1ccccc1	?	?
CC1CCN(S(=O)(=O)c2ccc3c(c2)N(CC(=O)NC(C)C)C(=O)CS3)CC1	22.8%	-7.7%
CCOC(=O)COc1ccc2c(c1)O/C(=C\c1sccc1C)C2=O	-4.6%	?
CCOC(=O)Cn1c(=O)n(C2CCCCC2)c2nc(-c3ccc(CC)cc3)nc(C(N)=O)c21	-1.3%	11.7%
O=C1CCCC2=C1C(c1ccc(Cl)cc1)n1nc(-c3cccnc3)nc1N2 (stereo not given)	6.2%	10.6%
CCOc1cc2c(cc1OCC)C(CC(=O)O)N(C(=O)Nc1ccccc1C(F)(F)F)CC2 (stereo not given)	-8.0%	4.7%
COc1ccc(-c2noc(-c3cc(C4CC4)[nH]n3)n2)cc1OC	29.8%	180.2%[activator]
Cc1cccnc1N(Cc1cccs1)C(=O)Nc1cccc(Cl)c1	2.0%	12.0%
CCOC(=O)c1ccc(NC(=O)c2sc3nc(-c4ccc(F)cc4)cn3c2C)cc1	3.3%	22.1%
O=C(C(c1ccccc1)N1CCN(S(=O)(=O)c2cccs2)CC1)N1CCCCC1 (stereo not given)	9.2%	2.1%
CCCCN(Cc1cc2ccccc2[nH]c1=O)C(=O)c1cccc(Cl)c1	0.1%	-9.8%
COC(=O)C(NC(=O)CCc1c(C)nc2cc(-c3cccc(F)c3)nn2c1C)C(C)C (stereo not given)	5.4%	?
COc1cc(NC(=O)c2cc(S(=O)(=O)N3CCCC3)c[nH]2)cc(OC)c1	11.7%	10.7%
COc1ccc(-c2nnc(C(C)Sc3nnc(-c4cccs4)n3C3CC3)o2)cc1 (stereo not given)	67.6%[activator]	0.0%

Retrieved one by one from the list above:
SMILES	StopGo RLuc	StopGo FLuc
COc1ccc(-c2nnc(C(C)Sc3nnc(-c4cccs4)n3C3CC3)o2)cc1 (stereo not given)	67.6%[activator]	0.0%
COC(=O)C(NC(=O)CCc1c(C)nc2cc(-c3cccc(F)c3)nn2c1C)C(C)C (stereo not given)	5.4%	?
COc1ccc(-c2noc(-c3cc(C4CC4)[nH]n3)n2)cc1OC	29.8%	180.2%[activator]
CCOC(=O)c1ccc(NC(=O)c2sc3nc(-c4ccc(F)cc4)cn3c2C)cc1	3.3%	22.1%
COc1cc(NC(=O)c2cc(S(=O)(=O)N3CCCC3)c[nH]2)cc(OC)c1	11.7%	10.7%
CCCCN(Cc1cc2ccccc2[nH]c1=O)C(=O)c1cccc(Cl)c1	0.1%	-9.8%

Following part
SMILES	StopGo RLuc	StopGo FLuc
N#Cc1cccc(C(=O)/C=C/c2ccsc2)c1	14.4%	14.6%
Cc1ccc(OC(=O)c2ccc(-c3ccccc3)cc2)cc1	-0.7%	-1.3%
COc1cccc(OC)c1C(=O)Nc1cccc(-c2nc3ccccc3o2)c1	5.2%	32.7%[activator]
Cn1c(=O)c(=O)n(C)c2cc(N3CCCC3)c(NC(=O)c3ccccc3Cl)cc21	-12.3%	6.9%
NC1CCCN(Cc2cccnc2)C1 (stereo not given)	9.1%	6.1%
Oc1c(C(c2ccccc2)N2CCCCC2)sc2nc(-c3ccco3)nn12 (stereo not given)	69.1%[activator]	14.3%
Cc1nn(-c2ccccc2)c2c1N(CCCC(=O)NC(C)c1ccccc1)C(=O)CS2 (stereo not given)	3.2%	-18.1%
COc1cccc(Oc2coc3cc(OC)ccc3c2=O)c1	0.0%	56.1%[activator]
c1nc(Sc2ccc3c(c2)OCCCO3)c2ccsc2n1	-20.8%	142.2%[activator]
CCN(CC)S(=O)(=O)c1ccc2c(c1)N(CC(=O)N1CCN(c3cccc(C)c3C)CC1)C(=O)CO2	11.5%	-20.2%

Laid out differently: three of the compounds above.
Cn1c(=O)c(=O)n(C)c2cc(N3CCCC3)c(NC(=O)c3ccccc3Cl)cc21
- StopGo RLuc: -12.3%
- StopGo FLuc: 6.9%

NC1CCCN(Cc2cccnc2)C1 (stereo not given)
- StopGo RLuc: 9.1%
- StopGo FLuc: 6.1%

Oc1c(C(c2ccccc2)N2CCCCC2)sc2nc(-c3ccco3)nn12 (stereo not given)
- StopGo RLuc: 69.1%[activator]
- StopGo FLuc: 14.3%

More records follow.
SMILES	StopGo RLuc	StopGo FLuc
COc1ccc(-c2noc(-c3ccc(N4CCOCC4)c([N+](=O)[O-])c3)n2)cc1OC	-6.4%	-18.1%
Cn1c(=O)c2c(ncn2CC(COCc2ccc(F)cc2)OCc2ccc(F)cc2)n(C)c1=O (stereo not given)	-19.8%	-13.9%
CCc1ccc(NC(=O)CSC2=Nc3ccccc3C3=NC(CCC(=O)NCc4ccccc4)C(=O)N23)cc1 (stereo not given)	7.1%	8.3%
O=C(O)CSCc1cccc(Cl)c1	1.0%	3.6%
Cc1noc(N)c1C(=O)OC(C)C(=O)NC1CCCCCC1 (stereo not given)	15.3%	11.1%
O=C(O)C(c1c[nH]c2cc(CO)ccc12)N1CCN(Cc2cccs2)CC1 (stereo not given)	-8.3%	9.6%
COc1ccc(C)cc1NC(=O)C(=O)NCC1(c2ccccc2)CCCC1	-4.8%	-11.8%
CCc1cccc(NC(=O)Cc2c[nH]c3ccccc23)c1	20.0%	0.0%
COc1cc(/C=C/C(=O)C23CC4CC(CC(C4)C2)C3)cc(OC)c1OC	11.9%	0.0%
Cc1ccc(C(=O)NCC(F)(F)F)o1	-6.6%	-7.4%
Cc1ccc(NC(=O)Cc2n[nH]c(=O)c3ccccc23)cc1S(=O)(=O)Nc1ccccc1Cl	-15.3%	-16.5%
COc1ccc(-c2nc(CN3CCC(C(=O)NCc4ccc(F)cc4)CC3)c(C)o2)cc1OC	-10.5%	0.1%
COc1ccc2c(C)c(CCC(=O)Nc3cccc(C)c3C)c(=O)oc2c1	46.1%[activator]	4.2%
COc1ccc(C(=O)Nc2ccc(S(=O)(=O)NCC3CCCO3)cc2)cc1 (stereo not given)	52.5%[activator]	?
CCOc1ccc(NC(=O)c2cc(-c3ccc(C)c(F)c3)on2)c([N+](=O)[O-])c1	-4.1%	3.9%
CC(C)N1CCC(Nc2nc(-c3cccnc3)nc3ccccc23)CC1	-11.4%	-7.0%
Cc1cc(C)cc(C(=O)N(c2cc(C)cc(C)c2)C2C=CS(=O)(=O)C2)c1 (stereo not given)	-0.5%	23.3%
Cc1cc(-c2nc(-c3ccc4c(c3)OCO4)no2)n[nH]1	25.5%	159.2%[activator]
CCN(CC)CC(O)COc1ccc2c(c1)c(C(C)=O)c(C)n2CC (stereo not given)	-8.1%	-0.7%
COc1nc2ccc(C)cc2cc1-c1noc(-c2ccccc2)n1	-6.9%	3.8%
CC(OC(=O)c1ccc2c(c1)NC(=O)CS2)C(=O)c1ccccc1 (stereo not given)	14.1%	84.1%[activator]
COc1ccc(-c2nc(C)c(CCNC(=O)C(=O)Nc3ccc(C)c(F)c3)s2)cc1OC	-3.5%	81.6%[activator]
Cc1ccc(S(=O)(=O)Cc2ccccc2F)cc1	9.4%	71.5%[activator]
CC(C)CN(CCCNC(=O)c1cc(=O)[nH]c2ccc(S(=O)(=O)N3CCCCCC3)cc12)CC(C)C	3.4%	-18.2%
COc1ccc(Nc2nnc(-c3cc4c(ccc5ccccc54)oc3=O)s2)cc1	-8.6%	-10.2%
Cc1oc(-c2ccc(Cl)cc2)nc1CN1CCCC(C(=O)NCCc2ccc(Cl)cc2)C1 (stereo not given)	12.6%	-17.4%
CC(C)c1noc(CCCC(=O)NC(C)c2cccs2)n1 (stereo not given)	0.9%	55.8%[activator]
Cc1nc2cc(NS(=O)(=O)c3ccc(F)cc3F)ccc2o1	14.1%	3.5%
COc1ccc(OCc2nc3ccccc3n2Cc2ccc(C(C)(C)C)cc2)cc1	-4.8%	0.0%
Cc1cccc(COC(=O)Cn2c(=O)c3c(ncn3CC(C)C)n(Cc3ccccc3)c2=O)c1	-6.9%	-0.8%
CCOCCCNC(=O)CCC(=O)NNc1nc2ccccc2c2nc(-c3ccccc3)nn12	-9.3%	-3.2%
CCn1c(=O)c(=O)n(CC)c2cc(N3CCCCC3)c(NC(=O)c3ccccc3OC)cc21	-9.1%	-15.9%
CCOC(=O)c1c(C)sc(-c2c(-c3ccc(OC)c(F)c3)[nH]c3c2c(=O)[nH]c(=O)n3C)c1O	-9.2%	-22.4%
CCN(CC)CCN	-8.7%	-19.8%
Cc1cccc2cc(-c3nc(-c4cccnc4)no3)c(=O)oc12	5.4%	-4.2%
Nc1ccc(S(=O)(=O)NC2(C(F)(F)F)NC(=O)N(c3cccc(Cl)c3)C2=O)cc1 (stereo not given)	-10.1%	-13.2%
CC1CCc2nc(NC(=O)COc3ccc(C(C)(C)C)cc3)sc2C1 (stereo not given)	-18.0%	-13.1%
Cc1ccc(CNS(=O)(=O)c2ccc(N3CCCCS3(=O)=O)cc2)cc1	-10.8%	?
CCC1CCCCN1C(=O)CN1C(=O)N(c2c(C)cccc2C)S(=O)(=O)c2ccccc21 (stereo not given)	41.3%[activator]	12.8%
CCC(C)C(=O)N1CCCC2CCCCC21 (stereo not given)	-5.0%	0.0%
COc1ccccc1C(=O)NCC1(N2CCN(C)CC2)CCCCC1	17.1%	-0.3%
CCc1ccccc1S(=O)(=O)Cc1ccc(C(=O)NCCc2ccc(Cl)cc2)o1	?	?
CCc1ccc2ncc3c(-c4ccc(F)cc4)nn(CC(=O)NCc4ccccc4)c3c2c1	-12.8%	-14.9%
Cc1cc(C)c(S(=O)(=O)N2CCCC2c2cc(C(C)C)no2)cc1C (stereo not given)	30.8%[activator]	4.3%
CCN(CC)C(=S)SCc1csc(-c2ccc(C)cc2)n1	-10.4%[1.06 µM]	114.4%[activator]
CC(OC(=O)C1=NN(C)C(=O)CC1)C(=O)c1c[nH]c2ccccc12 (stereo not given)	-6.5%	11.3%
CCc1ccc(-c2csc(Nc3ccc(S(=O)(=O)Nc4nc(C)cc(C)n4)cc3)n2)cc1	44.9%[activator]	-13.4%
CCOC(=O)c1cnc2ccc(C)cc2c1NCCc1ccc(OC)c(OC)c1	3.6%	3.9%
CC(C)CC(=O)NC1(C(F)(F)F)C(=O)Nc2c1c(=O)[nH]c(=O)n2-c1ccccc1 (stereo not given)	-14.3%	-10.7%
Cc1ccc(C)c(CN2C(=O)c3ccccc3S(=O)c3ccc(C(=O)NCCc4ccc(Cl)cc4)cc32)c1 (stereo not given)	-8.0%	-7.8%

Reprinted from the part before: four compounds, then new ones.
SMILES	StopGo RLuc	StopGo FLuc
CCc1ccc(-c2csc(Nc3ccc(S(=O)(=O)Nc4nc(C)cc(C)n4)cc3)n2)cc1	44.9%[activator]	-13.4%
CCOC(=O)c1cnc2ccc(C)cc2c1NCCc1ccc(OC)c(OC)c1	3.6%	3.9%
CC(C)CC(=O)NC1(C(F)(F)F)C(=O)Nc2c1c(=O)[nH]c(=O)n2-c1ccccc1 (stereo not given)	-14.3%	-10.7%
Cc1ccc(C)c(CN2C(=O)c3ccccc3S(=O)c3ccc(C(=O)NCCc4ccc(Cl)cc4)cc32)c1 (stereo not given)	-8.0%	-7.8%
COc1ccc(OC)c(C(=O)OCc2cccc(C#N)c2)c1	7.4%	15.9%
Cc1ccc(-c2cc(C(=O)Nc3c(C(=O)c4ccc(C)c(F)c4)oc4ccccc34)no2)cc1	-6.7%	-8.7%
Cc1cc(C2CCCCC2)ccc1O	0.2%	24.8%
Cc1cccc(OCC(=O)Nc2ccccc2OCc2cc(=O)n3cc(C)ccc3n2)c1	-11.9%	-13.5%
COc1ccc(CNCc2sccc2C)cc1	-18.4%	52.8%[activator]
CCCCNC(=O)c1ccc(-c2nc(CS(=O)(=O)c3ccc(C)cc3)c(C)o2)cc1	2.0%	-5.2%
Clc1cc(CNC2CN3CCC2CC3)cc(Cl)c1OCc1ccccc1 (stereo not given)	3.8%	13.9%
C[C@@H](O)[C@H]1C(=O)N2C(C(=O)O)=C(S[C@@H]3CN[C@H](C(=O)N(C)C)C3)[C@H](C)[C@H]12	-10.2%&-13.0%	-4.3%&-9.1%[11.5 µM]
COCCn1c(SCC(=O)O)nc2c1c(=O)[nH]c(=O)n2C	-2.7%	-3.1%
CCOC(=O)c1nc2ccccc2nc1N1CCN(C(=O)c2ccc(C)cc2)CC1	49.0%[activator]	-17.0%
Cn1c(SCc2ccc(F)cc2)nc2c([nH]c3ccccc32)c1=O	-17.6%	0.0%
CCC(C)Cc1c(C)sc2nc(CNc3ccc(F)cc3)[nH]c(=O)c12 (stereo not given)	-10.3%	-9.7%
CCOC(=O)c1c(C)n(-c2ccccc2)c2ccc(OC(=O)COc3ccccc3)cc12	-4.9%	-14.7%
CNc1snc(C)c1C(=O)NCCc1ccccc1OC	0.1%	18.4%
Cc1cc(C)c2nc(NC(=O)c3ccc(S(=O)(=O)N4CCC(C)CC4)cc3)sc2c1	1.6%	-3.9%
CC(NC(=O)CC12CC3CC(CC(C3)C1)C2)C12CC3CC(CC(C3)C1)C2 (stereo not given)	-1.3%	3.4%
CC(C)N(Cc1ccccc1)C(=O)CCS(=O)(=O)c1cc2c(cc1Cl)NC(=O)CO2	7.5%	-17.0%
